Vaccinia stage: Vaccinia orthopox stage-specific inhibition; Vaccinia-infected cells, mCherry/Venus stage reporter fluorescence; hits give low values; some inactives read as strong as hits; activity change (mCherry), % (no concentration beside the values); actives 0.01% (n = 89,000);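 active = mCherry past -33% and 40 or more points under the early reporter, replicates agreeing; inconclusive = past -33% without that gap or agreement; tested in A549 cells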;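 also: scaled between vehicle wells and reference inhibitor wells; 23 nL library stock went into each well; one replicate is shown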
Vaccinia stage Venus: further read-out of Vaccinia stage, marked with its call; activity change (Venus), %; measured here: Venus reporter, other viral stage;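 negative = less Venus signal; first of two replicates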
* hit, by the source's call; ? = inconclusive; · = not tested or not shown; & = joins results of further samples. Some of the compounds tested; the hit share may differ from the screen's.

SMILES | Vaccinia stage | Vaccinia stage Venus
O=C(Nc1ccccc1)N1C[C@H]2[C@@H](c3ccccc31)[C@H](CO)N2Cc1ccccc1Cl | -21.7 | -18.8
CN(C)C(=O)[C@@H]1[C@@H](CO)[C@@H]2Cn3c(ccc(C4=CCCC4)c3=O)[C@H]1N2CC1CCCCC1 | -3.6 | -2.1
COc1ccc(S(=O)(=O)Nc2ccc3c(c2)C(=O)N([C@@H](C)CO)C[C@H](C)[C@@H](CN(C)C(=O)NC2CCCCC2)OCCCC[C@@H](C)O3)cc1 | ? | ·
COc1ccc(NC(=O)N(C)C[C@H]2Oc3ccc(NC(=O)CCC(F)(F)F)cc3CC(=O)N([C@H](C)CO)C[C@H]2C)cc1 | -5.5 | -4.4
C[C@@H]1CN([C@@H](C)CO)C(=O)c2cccc(NC(=O)C3CCCCC3)c2O[C@@H]1CN(C)C(=O)Nc1ccc(F)cc1 | -11.2 | -10.8
C[C@@H]1CCCCO[C@@H](CN(C)Cc2ccc3c(c2)OCO3)[C@@H](C)CN([C@@H](C)CO)C(=O)c2cc(NC(=O)NC3CCCCC3)ccc2O1 | ? | ·
CCCC#Cc1cnc2c(c1)C(=O)N([C@H](C)CO)C[C@H](C)[C@H](CN(C)C(=O)Cc1ccccc1)O2 | -16.3 | -16.4
O=C(C[C@@H]1C=C[C@@H](NC(=O)c2ccc(F)cc2)[C@@H](CO)O1)NCc1ccncn1 | -1.8 | -0.7
COc1ccccc1C#Cc1ccc([C@@H]2[C@@H](C#N)N(C(=O)C3CCC3)[C@@H]2CO)cc1 | -1.4 | -2.0
CC(C)NC(=O)N(C)C[C@@H]1OCCCC[C@@H](C)Oc2ccc(NS(=O)(=O)c3ccccc3)cc2C(=O)N([C@@H](C)CO)C[C@H]1C | 9.0 | 12.5
COc1cccc(-c2ccc([C@H]3[C@H]4CN(C(=O)c5ccc(F)cc5)CCCCN4[C@H]3CO)cc2)c1 | ? | ·
COc1ccccc1CNC(=O)C[C@H]1CC[C@H]2[C@@H](COC[C@@H](O)CN2C(=O)Nc2ccc(Cl)cc2)O1 | -28.7 | -12.9
CCC(=O)N1CC(=O)N2[C@@H](CO)[C@@H](c3ccc(C#Cc4cccc(OC)c4)cc3)[C@@H]2C1 | -32.5 | -30.2
C[C@H]1CN([C@@H](C)CO)S(=O)(=O)c2ccc(C3=CCCCC3)cc2O[C@@H]1CN(C)C(=O)C1CCOCC1 | -7.4 | -1.4
CCC(=O)N1CCCCN2[C@H](C1)[C@@H](c1ccc(C#Cc3ccccc3F)cc1)[C@@H]2CO | ? | ·
COc1cccc(-c2cnc3c(c2)C(=O)N([C@@H](C)CO)C[C@@H](C)[C@H](CN(C)Cc2ccc(C(=O)O)cc2)O3)c1 | 3.5 | 5.6
C[C@@H]1CN([C@H](C)CO)C(=O)c2cc(NC(=O)Nc3ccc(C(F)(F)F)cc3)ccc2O[C@H]1CN(C)Cc1ccc(C(=O)O)cc1 | -3.3 | 2.4
CO[C@@H]1CN(C)C(=O)c2cc(NC(=O)C3CCC3)ccc2OC[C@@H](C)NC[C@H]1C | 3.4 | 0.8
C[C@@H]1CN([C@@H](C)CO)C(=O)c2cc(-c3ccccc3F)cnc2O[C@@H]1CN(C)Cc1cccc(C(=O)O)c1 | 19.8 | 5.7
CCN1[C@@H]2c3ccc(-c4ccccc4)c(=O)n3C[C@@H]2[C@@H](CO)[C@@H]1C(=O)Nc1ccccc1 | 3.1 | 13.1
CN(C)CC(=O)N1[C@@H](C#N)[C@@H](c2ccc(C#CC3CCCC3)cc2)[C@@H]1CO | -9.6 | -11.7
COc1ccc2c3c(n(C)c2c1)[C@@H](CO)N(C(C)=O)CC31CN(C(=O)c2cnccn2)C1 | 12.7 | 1.1
C[C@H](CO)N1C[C@H](C)[C@H](CN(C)CC2CC2)Oc2cc(C#CCN(C)C)ccc2S1(=O)=O | 26.8 | 15.1
COc1ccc2c3c(n(C)c2c1)[C@@H](CO)N(CC1CCOCC1)CC31CN(C(=O)Nc2ccccc2)C1 | -2.2 | -11.2
O=C(C1CCCC1)N1[C@H](CO)[C@@H]2c3ccccc3N(S(=O)(=O)c3ccc(F)cc3)C[C@@H]21 | 9.5 | 13.9

An excerpt from above in order of SMILES length, low to high:
SMILES | Vaccinia stage | Vaccinia stage Venus
CCC(=O)N1CCCCN2[C@H](C1)[C@@H](c1ccc(C#Cc3ccccc3F)cc1)[C@@H]2CO | ? | ·
COc1ccccc1C#Cc1ccc([C@@H]2[C@@H](C#N)N(C(=O)C3CCC3)[C@@H]2CO)cc1 | -1.4 | -2.0
COc1cccc(-c2ccc([C@H]3[C@H]4CN(C(=O)c5ccc(F)cc5)CCCCN4[C@H]3CO)cc2)c1 | ? | ·
CCN1[C@@H]2c3ccc(-c4ccccc4)c(=O)n3C[C@@H]2[C@@H](CO)[C@@H]1C(=O)Nc1ccccc1 | 3.1 | 13.1
CN(C)C(=O)[C@@H]1[C@@H](CO)[C@@H]2Cn3c(ccc(C4=CCCC4)c3=O)[C@H]1N2CC1CCCCC1 | -3.6 | -2.1
C[C@H]1CN([C@@H](C)CO)S(=O)(=O)c2ccc(C3=CCCCC3)cc2O[C@@H]1CN(C)C(=O)C1CCOCC1 | -7.4 | -1.4
COc1ccc(NC(=O)N(C)C[C@H]2Oc3ccc(NC(=O)CCC(F)(F)F)cc3CC(=O)N([C@H](C)CO)C[C@H]2C)cc1 | -5.5 | -4.4
COc1cccc(-c2cnc3c(c2)C(=O)N([C@@H](C)CO)C[C@@H](C)[C@H](CN(C)Cc2ccc(C(=O)O)cc2)O3)c1 | 3.5 | 5.6
C[C@@H]1CN([C@H](C)CO)C(=O)c2cc(NC(=O)Nc3ccc(C(F)(F)F)cc3)ccc2O[C@H]1CN(C)Cc1ccc(C(=O)O)cc1 | -3.3 | 2.4
CC(C)NC(=O)N(C)C[C@@H]1OCCCC[C@@H](C)Oc2ccc(NS(=O)(=O)c3ccccc3)cc2C(=O)N([C@@H](C)CO)C[C@H]1C | 9.0 | 12.5
COc1ccc(S(=O)(=O)Nc2ccc3c(c2)C(=O)N([C@@H](C)CO)C[C@H](C)[C@@H](CN(C)C(=O)NC2CCCCC2)OCCCC[C@@H](C)O3)cc1 | ? | ·

Next section
SMILES | Vaccinia stage | Vaccinia stage Venus
C[C@@H]1CN([C@@H](C)CO)C(=O)c2cc(C3=CCCC3)cnc2O[C@H]1CN(C)Cc1cccnc1 | 9.9 | 7.8
O=C(Nc1cccc(F)c1)N1CC(=O)N2[C@H](CO)[C@@H](c3ccc(C#CC4CC4)cc3)[C@@H]2C1 | -9.6 | -21.5
Cc1cccc(S(=O)(=O)N(C)C[C@H]2OCc3cn(nn3)CCCC(=O)N([C@H](C)CO)C[C@@H]2C)c1 | 11.6&11.6 | 2.1&1.5
CNC[C@@H]1OCCCC[C@H](C)Oc2ccc(NC(=O)Nc3ccc(OC)cc3)cc2C(=O)N([C@H](C)CO)C[C@@H]1C | 3.0 | 5.2
CC(C)C(=O)Nc1ccc2c(c1)C(=O)N(C)[C@H]1CC[C@H](CC(=O)Nc3ccccc3F)O[C@@H]1CO2 | 8.1 | 8.4
COc1ccc(S(=O)(=O)Nc2ccc3c(c2)[C@H]2C[C@H](CC(=O)N(C)C)O[C@H](CO)[C@H]2O3)cc1 | 16.9 | 10.4
CC=Cc1ccc2n(c1=O)C[C@H]1[C@H](CO)[C@@H](C(=O)NC3CCCCC3)N(C(=O)C3CC3)[C@@H]21 (mixture of isomers) | 7.6 | 2.5
Cn1cnc(S(=O)(=O)N2C[C@@H](O)COC[C@@H]3O[C@@H](CC(=O)N4CCN(c5ccccc5)CC4)CC[C@H]32)c1 | 11.9 | 14.4
O=C1CN(S(=O)(=O)c2cccc(F)c2)C[C@H]2[C@@H](c3ccc(-c4ccccc4)cc3)[C@H](CO)N12 | -25.4 | -15.3
C[C@@H]1CN([C@H](C)CO)C(=O)CCCn2nncc2CO[C@H]1CN(C)Cc1cccnc1 | ? | 0.7
COc1ccc(CN2C[C@H](O)COC[C@H]3O[C@H](CC(=O)NCc4ccncn4)CC[C@@H]32)cc1 | 7.5 | 7.3
CN(C)C(=O)c1ccc(-c2ccc(C3[C@@H]4CN(C(=O)C5CCCCC5)C[C@H]3N4)cc2)cc1 (stereo partly drawn) | -8.1 | -11.0
COc1cccc(C#Cc2ccc3c(c2)O[C@H](CN(C)C(=O)c2ccccn2)[C@H](C)CN([C@H](C)CO)S3(=O)=O)c1 | -12.9 | -6.5
C[C@H](CO)N1C[C@H](C)[C@H](CN(C)Cc2ccccc2)Oc2c(NS(=O)(=O)c3cn(C)cn3)cccc2C1=O | -3.8 | -0.9
CN1c2ccc(Br)cc2[C@H]2[C@H](CCN2C(=O)c2ccc(F)cc2)[C@H]1CO | -13.2 | -8.1
C[C@H]1CN([C@@H](C)CO)C(=O)Cc2cc(NC(=O)C3CCCCC3)ccc2O[C@H]1CN(C)CC1CC1 | 10.7 | 2.6
C[C@@H](NC(=O)C[C@@H]1CC[C@@H]2[C@H](COC[C@H](O)CN2Cc2ccc(C(F)(F)F)cc2)O1)c1ccccc1 | -8.9 | -3.3
CCCNC(=O)N(C)C[C@H]1Oc2cc(C#CCC(C)C)ccc2S(=O)(=O)N([C@H](C)CO)C[C@@H]1C | -20.3 | -8.8
C[C@@H]1CCCCO[C@@H](CN(C)Cc2ccc3c(c2)OCO3)[C@@H](C)CN([C@@H](C)CO)C(=O)c2cc(NC(=O)Nc3ccc(C(F)(F)F)cc3)ccc2O1 | ? | ·
C[C@H](NC(=O)C[C@H]1CC[C@H](NC(=O)Nc2ccc3c(c2)OCO3)[C@H](CO)O1)c1ccccc1 | -5.5 | 9.3
C[C@@H]1CN([C@H](C)CO)C(=O)c2cc(-c3cccc(F)c3)cnc2O[C@H]1CN(C)Cc1ccccc1 | -11.9 | -16.2
C[C@H](CO)N1C[C@H](C)[C@H](CN(C)Cc2ccccn2)Oc2cc(C3=CCCC3)ccc2S1(=O)=O | 17.7 | 5.5
C[C@@H]1CN([C@H](C)CO)C(=O)c2cccc(NC(=O)C3CC3)c2O[C@@H]1CN(C)CC1CC1 | 0.0 | -3.0
C=CCNC(=O)[C@@H]1[C@H]2C(=O)O[C@H](c3ccccc3)[C@H](c3ccccc3)N2[C@H](c2ccc(O)cc2)[C@@]12C(=O)Nc1ccc(C#CCC(C(=O)OC)C(=O)OC)cc12 | 19.1 | 9.5
C[C@H]1CCCCO[C@H](CN(C)C(=O)Cc2ccccc2)[C@@H](C)CN([C@@H](C)CO)C(=O)c2cc(NC(=O)Nc3ccccc3)ccc2O1 | -13.0 | -10.0

Continued.
SMILES | Vaccinia stage | Vaccinia stage Venus
CO[C@H]1CN(C)C(=O)c2cc(NC(C)=O)ccc2OC[C@@H](C)N(C(=O)C2CCC2)C[C@@H]1C | 4.2 | 9.1
CC=Cc1ccc2n(c1=O)C[C@H]1[C@H](CO)[C@@H](C(=O)N3CCOCC3)[C@@H]2N1CC1CCCC1 (mixture of isomers) | 13.6 | -1.0
CN1c2ccc(-c3ccccc3)cc2[C@@H]2[C@@H](CCN2C(=O)c2ccc(F)cc2)[C@@H]1CO | ? | ·
CC(C)NC(=O)N(C)C[C@@H]1Oc2ncc(C#CCc3ccccc3)cc2C(=O)N([C@@H](C)CO)C[C@@H]1C | -6.2 | -12.9
CCCN(C)C[C@H]1OCCCC[C@@H](C)Oc2ccc(N(C)C)cc2C(=O)N([C@H](C)CO)C[C@@H]1C | 2.3 | -6.0
C[C@H]1CN([C@@H](C)CO)C(=O)c2cccc(NC(=O)Nc3ccccc3)c2O[C@@H]1CN(C)C(=O)Nc1ccccc1 | -1.4 | 5.0
COc1ccc(NC(=O)N[C@H]2CC[C@@H](CCNC(=O)CCN3CCCCC3)O[C@H]2CO)cc1 | 11.8 | 8.9
COc1ccc(C#Cc2ccc3c(c2)O[C@@H](CN(C)C)[C@@H](C)CN([C@@H](C)CO)S3(=O)=O)cc1 | ? | ·
O=C(C[C@H]1CC[C@H]2NC[C@@H](O)COC[C@@H]2O1)Nc1nccs1 | 5.8 | 20.0
CC(C)NC(=O)N[C@H]1CC[C@H](CC(=O)N2CCCCC2)O[C@H]1CO | 6.2 | 6.5
C[C@@H]1CCCCO[C@H](CN(C)Cc2ccc3c(c2)OCO3)[C@@H](C)CN([C@@H](C)CO)C(=O)c2cc(NC(=O)C3CCCCC3)ccc2O1 | ? | ·
C[C@@H]1CN([C@H](C)CO)C(=O)c2cccc(NC(=O)C3CCOCC3)c2O[C@@H]1CN(C)C(=O)NC1CCCCC1 | 0.9 | 7.8
Cc1ccc(S(=O)(=O)NCC[C@H]2CC[C@H](NC(=O)Nc3cccc(F)c3)[C@@H](CO)O2)cc1 | -17.8 | -1.8
CCCN1C[C@@H](C)[C@H](OC)CN(C)C(=O)c2ccc(NS(=O)(=O)c3ccccc3)cc2OC[C@@H]1C | -6.8 | 2.2
CO[C@H]1CN(C)C(=O)c2ccc(NS(=O)(=O)c3ccccc3C)cc2OC[C@H](C)N(C)C[C@H]1C | -6.1 | 3.5
C[C@@H]1CCCCO[C@H](CN(C)CC2CC2)[C@H](C)CN([C@@H](C)CO)C(=O)c2cc(NS(C)(=O)=O)ccc2O1 | 21.2 | 6.0
CC(C)NC(=O)N1[C@@H]2CN(C(=O)C3CCC3)c3ccccc3[C@@H]2[C@@H]1CO | -10.1 | 11.9
CCCNC(=O)[C@H]1[C@H](CO)[C@H]2Cn3c(cccc3=O)[C@H]2N1CC1CC1 | 5.7 | 30.6
CN1CCN(C(=O)C[C@@H]2CC[C@H]3[C@@H](COC[C@H](O)CN3Cc3cccc(-c4ccncc4)c3)O2)CC1 | 7.8 | 4.2
COc1ccc(S(=O)(=O)N(C)C[C@@H]2Oc3ncc(/C=C/c4ccccc4)cc3C(=O)N([C@H](C)CO)C[C@@H]2C)cc1 | ? | ·
C[C@H]1CCCCO[C@H](CN(C)S(=O)(=O)c2ccccc2)[C@@H](C)CN([C@@H](C)CO)C(=O)c2cc(NC(=O)Nc3ccccc3)ccc2O1 | -12.6 | -5.8
Cc1noc(C)c1NC(=O)Nc1ccc2c(c1)C(=O)N([C@H](C)CO)C[C@@H](C)[C@@H](CN(C)C)OCCCC[C@@H](C)O2 | 6.7 | 13.1
C[C@H]1CCCCO[C@@H](CN(C)CC2CCCCC2)[C@@H](C)CN([C@@H](C)CO)C(=O)c2cc(NC(=O)Nc3ccccc3)ccc2O1 | ? | ·
